AF4-AF9 inh – blocks AF4 peptide binding to human AF9 | 350,000 tested, 0.47% active | P42568 | inhibition, % at 10 µM | AlphaScreen, biotin-AF4 peptide binding to FLAG-AF9;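 active means every replicate reaching a set inhibition limit, whatever the replicate mean, cut at about 25% in these data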;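 further: 0% = plate neutral control median and 100% = total signal loss; the record names both 10 and 1 µM as test concentration; the first replicate is given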
Target sequence (P42568 whole entry, looked up): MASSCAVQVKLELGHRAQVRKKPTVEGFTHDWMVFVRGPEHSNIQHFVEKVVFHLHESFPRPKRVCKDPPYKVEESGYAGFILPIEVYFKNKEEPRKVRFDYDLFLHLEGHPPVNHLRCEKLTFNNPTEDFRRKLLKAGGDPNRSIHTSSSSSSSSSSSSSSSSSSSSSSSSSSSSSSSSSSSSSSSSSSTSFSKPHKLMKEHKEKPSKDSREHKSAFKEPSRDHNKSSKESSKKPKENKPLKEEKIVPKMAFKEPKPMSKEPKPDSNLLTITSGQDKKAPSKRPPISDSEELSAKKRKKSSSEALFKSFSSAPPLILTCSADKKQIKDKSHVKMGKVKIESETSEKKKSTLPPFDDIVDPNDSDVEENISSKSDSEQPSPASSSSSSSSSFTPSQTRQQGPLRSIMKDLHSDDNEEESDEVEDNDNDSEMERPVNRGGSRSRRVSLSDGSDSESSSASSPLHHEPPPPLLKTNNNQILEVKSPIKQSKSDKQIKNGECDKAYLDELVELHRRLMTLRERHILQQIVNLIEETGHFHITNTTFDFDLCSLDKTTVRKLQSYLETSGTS
Ecoli rRNA inh – inhibitors of bacterial rRNA selective over humanized ribosomes; E. coli WT GFP vs humanized-ribosome RFP mutants, fluorescence, 24 h; hits give low values; DMSO median 0, no signal -100; 350,000 tested, 1.6% active; AID 720706; GFP signal change (wild-type ribosome), % (concentration not given with the values);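 active means significant combined selectivity score with lowered wild-type GFP, culture density cut under 30%, mutant RFP and density less affected; inactive means any of these conditions unmet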; further: one replicate is shown; some compounds called inactive have numbers as strong as hits
Ecoli rRNA inh OD600 – also measured in Ecoli rRNA inh; calls as there; OD600 change, %; measured here: OD600 growth;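 optical density of the mix in the first replicate; 0 = DMSO median and -100 = no signal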
Ecoli rRNA inh RFP – also measured in Ecoli rRNA inh; calls as there; RFP signal change, %; measured here: RFP humanized mutant strains;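 first replicate; 0 = DMSO median and -100 = no signal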
Numbers without * were called inactive; & = joins results of further samples.

SMILES	AF4-AF9 inh	Ecoli rRNA inh	Ecoli rRNA inh OD600	Ecoli rRNA inh RFP
COc1ccc2c3c(n(C)c2c1)[C@H](CO)N(Cc1cccc(F)c1)CC31CCN(C)CC1	1.2	0.6	-1.0	2.0
CC(C)NC(=O)N(C)C[C@@H]1Oc2ccc(NC(=O)Nc3ccccc3)cc2CC(=O)N([C@@H](C)CO)C[C@@H]1C	-1.9	0.0	6.0	-1.9
O=C1NC[C@H](Cc2ccccc2)N(C[C@@H]2CCCN2C[C@H](Cc2ccccc2)N2C[C@H](Cc3ccccc3)N(CCc3ccccc3)C(=O)C2=O)C1=O	1.8	-17.4	-19.6	1.2
O=C(C[C@@H]1CC[C@H](NC(=O)Nc2cc(F)ccc2F)[C@@H](CO)O1)NCc1ccccn1	2.0	4.3	1.0	-1.1
CC(C)C#Cc1ccc2c(c1)O[C@H](CN(C)C(=O)c1cnccn1)[C@H](C)CN([C@H](C)CO)S2(=O)=O	1.4	-2.8	-1.7	-3.5
O=C(C[C@@H]1C=C[C@H](NS(=O)(=O)c2ccccc2)[C@@H](CO)O1)NCCN1CCCCC1	-4.9	5.6	9.2	-1.2
CO[C@@H]1CN(C)C(=O)c2cc(NC(=O)C3CC3)ccc2OC[C@@H](C)N(Cc2ccccc2)C[C@@H]1C	-0.9	-2.2	-5.8	2.6
C[C@@H]1CN([C@H](C)CO)C(=O)c2cc(NS(=O)(=O)c3ccc(F)cc3)ccc2O[C@@H](C)CCCCO[C@H]1CN(C)S(=O)(=O)c1ccc(Cl)cc1	-8.4	1.1	4.3	1.7
O=C(Cc1ccncc1)NCC[C@H]1CC[C@@H](NC(=O)Nc2ccc(Cl)cc2)[C@@H](CO)O1	-0.3	-0.4	6.3	-1.0
CCCNC(=O)N1C[C@@H](C)[C@@H](OC)CN(C)C(=O)c2ccc(NC(=O)CCC)cc2OC[C@H]1C	-1.4	0.4	2.7	-2.0
COc1cccc(-c2ccc([C@H]3[C@H](C#N)N(C(=O)Cc4ccccc4)[C@H]3CO)cc2)c1	-0.1	-15.6	-39.1	8.4
C[C@H](CO)N1C[C@H](C)[C@H](CN(C)Cc2ccc(-c3ccccc3)cc2)Oc2ccc(NS(=O)(=O)c3cn(C)cn3)cc2CC1=O	3.5	1.9	-13.8	9.9
COc1ccccc1NC(=O)N1[C@H](CO)[C@H](c2ccccc2)[C@@H]1C#N	-1.3	1.6	14.2	-1.2
CCCNC(=O)Nc1ccc2c(c1)C(=O)N(C)[C@H]1CC[C@H](CC(=O)Nc3ccccc3C)O[C@@H]1CO2	-0.9	0.0	2.0	-0.6
C[C@H]1CN([C@@H](C)CO)C(=O)c2cc(Br)cnc2O[C@@H]1CN(C)CC1CCCC1	-0.2	5.4	11.3	-2.9
C[C@H](CO)N1C[C@H](C)[C@@H](CN(C)C)OCCCC[C@H](C)Oc2ccc(NC(=O)Nc3ccccc3)cc2C1=O	4.7	2.1	3.9	-1.4
CC=Cc1ccc2n(c1=O)C[C@@H]1[C@@H](CO)[C@H](C(=O)NCC)N(C(=O)C3CCOCC3)[C@H]21 (mixture of isomers)	-0.3	5.1	2.1	6.5
Cc1noc(C)c1NC(=O)N(C)C[C@@H]1Oc2c(NS(=O)(=O)c3cccs3)cccc2C(=O)N([C@@H](C)CO)C[C@H]1C	-3.9	0.7	5.1	-1.0
C[C@@H]1CN([C@@H](C)CO)S(=O)(=O)c2ccc(C#Cc3ccncc3)cc2O[C@H]1CN(C)S(=O)(=O)c1ccc(F)cc1	1.7	-2.5	-4.4	8.4
O=C(NCCc1ccncc1)[C@H]1[C@H](CO)[C@H]2Cn3c(ccc(-c4cccc(F)c4)c3=O)[C@@H]1N2	-1.5	5.6	6.2	-0.6
O=C(Nc1c(-c2ccccc2)[nH][nH]c1=O)c1ccco1	-1.4	14.2	13.4	-4.4
C[C@@H]1CN([C@@H](C)CO)C(=O)c2cc(NC(=O)Nc3ccccc3)ccc2O[C@@H](C)CCCCO[C@H]1CN(C)S(=O)(=O)c1ccc(Cl)cc1	0.5	6.2	7.9	-1.2
CC(C)NC(=O)Nc1ccc2c(c1)CC(=O)N([C@H](C)CO)C[C@@H](C)[C@@H](CN(C)S(=O)(=O)c1ccccc1)O2	-0.2	1.4	-8.7	0.8
CN(C)CC(=O)Nc1ccc2c(c1)[C@@H]1C[C@@H](CC(=O)NCc3cc(F)ccc3F)O[C@H](CO)[C@@H]1O2	3.3	2.4	2.9	0.3
COc1cccc(NC(=O)C[C@@H]2CC[C@@H]3[C@@H](COc4ccc(NC(=O)C5CCOCC5)cc4C(=O)N3C)O2)c1	7.3	2.7	0.9	-0.5
Remaining list, next part.
SMILES	AF4-AF9 inh	Ecoli rRNA inh	Ecoli rRNA inh OD600	Ecoli rRNA inh RFP
COc1ccc(NC(=O)N(C)C[C@H]2Oc3ccc(NC(=O)CCC(F)(F)F)cc3CC(=O)N([C@H](C)CO)C[C@H]2C)cc1	-1.7	2.8	2.2	-0.9
COc1ccc(S(=O)(=O)Nc2ccc3c(c2)C(=O)N([C@@H](C)CO)C[C@H](C)[C@@H](CN(C)C(=O)NC2CCCCC2)OCCCC[C@@H](C)O3)cc1	1.4	1.8	-3.2	5.4
CN(C)C(=O)[C@@H]1[C@@H](CO)[C@@H]2Cn3c(ccc(C4=CCCC4)c3=O)[C@H]1N2CC1CCCCC1	0.8	-1.4	-8.4	2.8
CCCC#Cc1cnc2c(c1)C(=O)N([C@H](C)CO)C[C@H](C)[C@H](CN(C)C(=O)Cc1ccccc1)O2	-3.5	3.3	-7.2	-0.5
C[C@@H]1CCCCO[C@@H](CN(C)Cc2ccc3c(c2)OCO3)[C@@H](C)CN([C@@H](C)CO)C(=O)c2cc(NC(=O)NC3CCCCC3)ccc2O1	6.5	2.8	-4.5	4.1
C[C@@H]1CN([C@@H](C)CO)C(=O)c2cccc(NC(=O)C3CCCCC3)c2O[C@@H]1CN(C)C(=O)Nc1ccc(F)cc1	0.2	-1.3	5.1	0.4
COc1ccccc1C#Cc1ccc([C@@H]2[C@@H](C#N)N(C(=O)C3CCC3)[C@@H]2CO)cc1	-2.9	3.7	-15.3	0.9
O=C(C[C@@H]1C=C[C@@H](NC(=O)c2ccc(F)cc2)[C@@H](CO)O1)NCc1ccncn1	-2.7	4.7	1.7	-2.6
COC(=O)C[C@H]1C=C[C@H](NC(=O)c2ccc(F)cc2)[C@@H](CO)O1	-0.4	4.3	4.0	-0.8
COc1ccccc1CNC(=O)C[C@H]1CC[C@H]2[C@@H](COC[C@@H](O)CN2C(=O)Nc2ccc(Cl)cc2)O1	-0.6	-57.9	-76.5	-18.1
COc1cccc(-c2ccc([C@H]3[C@H]4CN(C(=O)c5ccc(F)cc5)CCCCN4[C@H]3CO)cc2)c1	-5.5	-6.3	-44.2	29.8
Cn1c(=O)c2c(-c3ccccc3)n(-c3ccc(N)cc3)cc2n(C)c1=O	6.7	2.9	11.8	10.4
CC(C)NC(=O)N(C)C[C@@H]1OCCCC[C@@H](C)Oc2ccc(NS(=O)(=O)c3ccccc3)cc2C(=O)N([C@@H](C)CO)C[C@H]1C	-1.4	-1.8	-9.8	0.9
CC(=O)CC1N(S(=O)(=O)c2ccc(C)cc2)c2ccccc2N1S(=O)(=O)c1ccc(C)cc1	-5.1	10.1	10.6	4.5
CNC[C@H]1Oc2ccc(NS(=O)(=O)c3ccc(Cl)cc3)cc2CC(=O)N([C@H](C)CO)C[C@@H]1C	-1.2	0.9	-2.6	-0.3
O=C(Nc1ccccc1)N1C[C@H]2[C@@H](c3ccccc31)[C@H](CO)N2Cc1ccccc1Cl	-1.4	-5.3	-8.2	2.3
Cc1cccnc1C(NC(=O)C1CCN(Cc2ccccc2)CC1)c1ccc(F)cc1 (configuration not stated)	2.4	7.4	11.2	-1.2
Cc1ccc(S(=O)(=O)N(C)C[C@H]2OCCCC[C@@H](C)Oc3ccc(NS(=O)(=O)c4cccs4)cc3C(=O)N([C@@H](C)CO)C[C@@H]2C)cc1	-0.5	-2.2	7.9	-0.2
O=C(NC1CCCC1)N[C@H]1C=C[C@@H](CC(=O)N2CCOCC2)O[C@H]1CO	1.7	1.3	2.7	-1.2
COc1ccc2c3c(n(C)c2c1)[C@@H](CO)N(C(C)=O)CC31CN(C(=O)c2cnccn2)C1	0.0	-2.9	-8.2	-1.6
CN(C)CC(=O)N1[C@@H](C#N)[C@@H](c2ccc(C#CC3CCCC3)cc2)[C@@H]1CO	2.9	1.1	-0.1	1.3
C[C@H](CO)N1C[C@H](C)[C@H](CN(C)CC2CC2)Oc2cc(C#CCN(C)C)ccc2S1(=O)=O	-40.0	2.2	13.0	-0.6
CC=Cc1ccc2n(c1=O)C[C@@H]1[C@@H](CO)[C@H](C(=O)NCCC)[C@H]2N1CC1CCOCC1 (mixture of isomers)	-22.8	2.6	9.9	0.8
O=C(Nc1cccc(F)c1)N1CC(=O)N2[C@H](CO)[C@@H](c3ccc(C#CC4CC4)cc3)[C@@H]2C1	1.7	-31.6	-56.7	15.9
C[C@@H]1CN([C@@H](C)CO)C(=O)c2cc(C3=CCCC3)cnc2O[C@H]1CN(C)Cc1cccnc1	-4.3	3.7	11.4	-4.5

Grouped by structure, the entries above with a thiophene ring, fused or not (two)
SMILES	AF4-AF9 inh	Ecoli rRNA inh	Ecoli rRNA inh OD600	Ecoli rRNA inh RFP
Cc1noc(C)c1NC(=O)N(C)C[C@@H]1Oc2c(NS(=O)(=O)c3cccs3)cccc2C(=O)N([C@@H](C)CO)C[C@H]1C	-3.9	0.7	5.1	-1.0
Cc1ccc(S(=O)(=O)N(C)C[C@H]2OCCCC[C@@H](C)Oc3ccc(NS(=O)(=O)c4cccs4)cc3C(=O)N([C@@H](C)CO)C[C@@H]2C)cc1	-0.5	-2.2	7.9	-0.2

(further entries)
SMILES	AF4-AF9 inh	Ecoli rRNA inh	Ecoli rRNA inh OD600	Ecoli rRNA inh RFP
O=C(C1CCCC1)N1[C@H](CO)[C@@H]2c3ccccc3N(S(=O)(=O)c3ccc(F)cc3)C[C@@H]21	0.6	-6.0	4.6	1.8
COc1ccc2c3c(n(C)c2c1)[C@@H](CO)N(CC1CCOCC1)CC31CN(C(=O)Nc2ccccc2)C1	1.0	5.2	2.7	5.7
CNC[C@@H]1OCCCC[C@H](C)Oc2ccc(NC(=O)Nc3ccc(OC)cc3)cc2C(=O)N([C@H](C)CO)C[C@@H]1C	-2.9	6.5	2.1	-2.2
Cc1cccc(S(=O)(=O)N(C)C[C@H]2OCc3cn(nn3)CCCC(=O)N([C@H](C)CO)C[C@@H]2C)c1	0.1&-5.6&-0.5	-2.9&-2.4	3.4&-1.0	-2.0&-0.3
CN(C)CC1CCC/C(=C\c2ccc(OC(=O)c3ccc(Cl)cc3)cc2)C1=O (configuration not stated)	1.1	0.9	7.6	-1.3
CCC(=O)N1CC(=O)N2[C@@H](CO)[C@@H](c3ccc(C#Cc4cccc(OC)c4)cc3)[C@@H]2C1	-0.8	-1.8	9.6	-6.0
C[C@@H]1CN([C@H](C)CO)C(=O)c2cc(NC(=O)Nc3ccc(C(F)(F)F)cc3)ccc2O[C@H]1CN(C)Cc1ccc(C(=O)O)cc1	-2.1	-9.6	-4.5	0.1
COc1cccc(-c2cnc3c(c2)C(=O)N([C@@H](C)CO)C[C@@H](C)[C@H](CN(C)Cc2ccc(C(=O)O)cc2)O3)c1	-0.8	7.5	3.3	-4.2
CCC(=O)N1CCCCN2[C@H](C1)[C@@H](c1ccc(C#Cc3ccccc3F)cc1)[C@@H]2CO	-15.9	-58.2	-67.8	-11.7
C[C@H]1CN([C@@H](C)CO)S(=O)(=O)c2ccc(C3=CCCCC3)cc2O[C@@H]1CN(C)C(=O)C1CCOCC1	-8.2	-2.4	-7.5	1.4
COc1ccc(OCCN2CCC(C(=O)NC(c3ccc(Cl)cc3)c3cccnc3)CC2)cc1 (configuration not stated)	4.3	0.9	-4.9	5.9
CCc1nc2c(OCc3cccc(OC)c3)cccn2c1N(C)C(=O)C(C)C	-1.4	3.5	5.6	-1.6
COc1ccc(C(C)(C)C)cc1N1C(=O)[C@@H]2CSCCS(=O)(=O)N2C1=O	-1.6	4.7	8.1	7.8
Cc1[nH]c(C)c2c(=O)n(Cc3ccccc3Cl)ncc12	-0.2	3.7	5.8	0.3
CO[C@@H]1CN(C)C(=O)c2cc(NC(=O)C3CCC3)ccc2OC[C@@H](C)NC[C@H]1C	-6.6	0.8	4.5	-1.1
CCN1[C@@H]2c3ccc(-c4ccccc4)c(=O)n3C[C@@H]2[C@@H](CO)[C@@H]1C(=O)Nc1ccccc1	4.2	-6.8	-13.8	2.6
C[C@@H]1CN([C@@H](C)CO)C(=O)c2cc(-c3ccccc3F)cnc2O[C@@H]1CN(C)Cc1cccc(C(=O)O)c1	-9.7	3.4	5.6	-1.7
COc1ccc(NC(=O)c2cc(S(=O)(=O)N3CCCCC3)ccc2C)cc1S(=O)(=O)N1CCOCC1	3.5	8.7	9.0	7.4
CCCNC(=O)N(C)C[C@H]1Oc2cc(C#CCC(C)C)ccc2S(=O)(=O)N([C@H](C)CO)C[C@@H]1C	2.0	-3.4	-20.8	0.5
Cc1ccc(C(O)c2ncc(-c3ccccc3Cl)[nH]2)cc1F (configuration not stated)	4.9	9.2	-11.0	-2.9
C[C@@H](NC(=O)C[C@@H]1CC[C@@H]2[C@H](COC[C@H](O)CN2Cc2ccc(C(F)(F)F)cc2)O1)c1ccccc1	-2.2	-6.1	-31.5	-2.2

Screening data deposited in PubChem BioAssay by Broad Institute.

Not all compounds are listed; the hit share may differ from the screen's.
